NS1 function inh – blocks influenza NS1 protein function; S. cerevisiae slowed by influenza A NS1, growth recovery by OD600; Potency, µM (titrated, usually from 46.1 µM), for the others: at the top dose activity, positive = more growth; hit rate 0.4% among 270,000; AID 2326; active means well fitted rising curve with a large enough effect; inconclusive means small, poorly fitted or top-dose-only effect; inactive means no such curve, though single readings can be large or run the other way; further: nearly all actives have a fitted effect of over 50% in size
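OD600 was taken as the measure of yeast growth restored by compound in an NS1-expressing S. cerevisiae strain. Cells had been washed out of glucose medium and diluted 1:100 into galactose -URA medium, pH 6.0.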
Cruzain Triton – inhibitors of Trypanosoma cruzi cruzain with detergent; purified cruzain, Z-FR-AMC fluorescence, 0.01% Triton; P25779; hit rate 0.43% among 200,000; Potency, µM, for inactives: max response, negative = inhibition, most hits filed as inhibitors; AID 1478;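 further: plate controls were neutral wells for no effect and buffer without enzyme for full effect; nearly all actives have a fitted effect of over 40% in size; top concentration of the series not given in the record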
Target sequence (P25779 123-467 limits assumed): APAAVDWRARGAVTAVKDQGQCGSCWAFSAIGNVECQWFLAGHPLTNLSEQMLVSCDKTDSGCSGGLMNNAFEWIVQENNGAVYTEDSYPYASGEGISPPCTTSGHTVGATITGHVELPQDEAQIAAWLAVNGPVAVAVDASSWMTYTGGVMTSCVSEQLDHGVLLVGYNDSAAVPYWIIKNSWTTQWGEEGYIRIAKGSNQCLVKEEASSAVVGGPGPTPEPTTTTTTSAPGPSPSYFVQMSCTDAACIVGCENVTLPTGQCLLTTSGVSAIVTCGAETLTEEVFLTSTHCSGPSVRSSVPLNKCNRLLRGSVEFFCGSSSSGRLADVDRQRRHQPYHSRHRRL
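Enzyme 1.5 nM, Z-FR-AMC 2 uM, NaOAc 100 mM pH 5.5, DTT 5 mM, Triton X-100 0.01%; 15 min RT compound preincubation; kinetic ex360/em450, 60 s delta.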
Cruzain inh noDet – cruzain (T. cruzi) inhibition without detergent. P25779. purified cruzain, Z-FR-AMC fluorescence, no detergent. Potency, µM, without a hit: max response, negative = inhibition, hits mostly inhibitors. hit rate 2.3% among 200,000. AID 1476;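 further: plate controls were enzyme without inhibitor for no effect and buffer without enzyme for full effect; nearly all actives have a fitted effect of over 40% in size; top concentration of the series not given in the record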
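Detergent-free condition (0.00005% Triton X-100) in acetate buffer pH 5.5 with DTT. 1.5 nM enzyme and compound were pre-mixed 15 min, then 2 uM Z-FR-AMC substrate added; reaction progress from fluorescence change between first and third reads (60 s).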
SARS PLP yeast – inhibitors of SARS-CoV papain-like protease in yeast; AID 485353; S. cerevisiae expressing SARS-CoV PLpro, growth rescue; control for the full effect not named in the record; Potency, µM (top dose mostly 32.9 µM), for inactives: at the highest dose activity, positive = growth rescue; hit rate 0.19% among 330,000; active means well fitted rising curve with a large enough effect; inconclusive means small, poorly fitted or top-dose-only effect; inactive means no such curve, though single readings can be large or run the other way; further: 0% is about no effect; nearly all actives have a fitted effect of over 55% in size; growth read by luminescence after 48 h
Marburg entry inh – blocks Marburg virus binding to or entry into cells. hit rate 1.8% among 300,000. Potency, µM (top dose mostly 37.8 µM), without a hit: at the top dose activity change, negative = inhibition, hits mostly inhibitors. Marburg virus pseudotyped entry inhibition, cell reporter; control for the full effect not named in the record; about a third of the inactives were read at about 46 µM; active = well fitted inhibition curve with a large enough effect; inconclusive = small, poorly fitted or top-dose-only effect, or effect the other way; inactive = flat fitted curve, though single readings scatter; tested in HEK293 cells; about a fifth of its hits are not listed in these tables; further: on the % scale 0 is the no-effect control and ±100 the full control effect; luciferase read-out
RE007 growth inh – less growth of the S. pombe RE007 Vpr strain. Potency, µM (series often up to 92.2 µM), for the others: at the top dose activity change, negative = less growth. S. pombe RE007 Vpr strain, BacTiter-Glo ATP luminescence, 24 h; control for the full effect not named in the record. hit rate 0.21% among 360,000. AID 651644; active = well fitted falling curve with a large enough effect; inconclusive = small, poorly fitted or top-dose-only effect; inactive = no such curve, though single readings can be large or run the other way;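 further: on the % scale 0 is the no-effect control and ±100 the full control effect; nearly all actives have a fitted effect of over 50% in size; the assay follows cell death caused by Vpr and the record does not say whether a fall means rescue or toxicity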
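Fission yeast strain RE007, carrying one chromosomally integrated HIV-1 vpr copy, was seeded at OD 0.01 in PMG+AL medium with 23 nL pinned compound. After 24 h at 30 °C and 99% humidity, viability was read by BacTiter-Glo luminescence.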
2A StopGo – lowers the luciferase signal of an FMDV 2A StopGo reporter; human cells with a luciferase reporter of 2A StopGo recoding; control for the full effect not named in the record; Potency, µM (series often up to 57.9 µM), without a hit: top-dose signal change, negative = less light; hit rate 1.2% among 410,000; AID 1159524; active = well fitted falling curve with a large enough effect; inconclusive = small, poorly fitted or top-dose-only effect; inactive = no such curve, though single readings can be large or run the other way; tested in HEK293T cells; further: on the % scale 0 is the no-effect control and ±100 the full control effect; nearly all actives have a fitted effect of over 45% in size; luciferase light after 4 h
Lassa entry inh – Lassa virus entry inhibition | Lassa virus pseudotype entry inhibition, cell reporter; control for the full effect not named in the record | Potency, µM (titrated, usually from 37.9 µM), for the others: top-dose activity change, negative = inhibition, usual class: inhibitors | hit rate 1.2% among 300,000 | AID 540256; active means well fitted inhibition curve with a large enough effect; inconclusive means small, poorly fitted or top-dose-only effect, or effect the other way; inactive means flat fitted curve, though single readings scatter; tested in HEK293 cells; further: on the % scale 0 is the no-effect control and ±100 the full control effect; nearly all actives have a fitted effect of over 50% in size; luciferase read-out
Active calls of the source: *; ? = inconclusive; nt = no result given; [ ] = dose if it differs, or a comment. Unless noted, the call rests on the fitted dose curve; in most records, active means well fitted curve in the direction sought with a large enough effect; inconclusive means small, poorly fitted or top-dose-only effect, or another doubt; inactive means no such curve, though single readings can be large; an effect the other way counts as inactive or inconclusive. Potency means the concentration at half of the fitted maximal effect.

smiles,Lassa entry inh,SARS PLP yeast,Cruzain Triton,NS1 function inh,Cruzain inh noDet,Marburg entry inh,RE007 growth inh,2A StopGo
O=C(COC(=O)C12CC3CC(CC(C3)C1)C2)NCCCc1ccccc1,13%,5%,-8.3%,-37%,14%,-4%,-15%,0%
CC(=O)c1c(O)cc(=O)n(-c2ccccc2)c1-c1ccc(C)cc1,11%,0%,0.7%,23%,-10%,14%[46.1 µM],10%,-22%
CCOC(=O)CSc1nc2ccccc2c(=O)[nH]1,nt,3%,-1.5%,-5%,-9%,1%,4%,3%
FC(F)Oc1ccccc1NC(=S)Nc1cccc(Cl)c1Cl,7%,-4%,-4.6%,11%,7%,-8%,0%,-22%
COc1ccc(Cl)cc1NC(=O)CSc1nc(N2CCOCC2)nc(N2CCOCC2)n1,?,21%,nt,12%,nt,?,-5%,-14%
COc1cc(C(=O)N2CCCCCCC2)ccc1OC1CCN(C(C)=O)CC1,8%,0%,nt,8%,nt,?,-5%,24%
COc1ccc(C)cc1NC(=O)c1oc2ccc(S(=O)(=O)N3CCCCC3)cc2c1C,3%[46.1 µM],nt,1.6%,nt,-1%,nt,nt,0%
CC(C)CC(=O)N1CCN(Cc2ccc(Br)cc2)CC1,-2%[46.1 µM],?,nt,-2%,nt,2%[46.1 µM],7%,-24%
O=C1Cc2cc(S(=O)(=O)Nc3ccc(OC(F)(F)F)cc3)cc3c2N1CCC3,-6%[46.1 µM],nt,-13%,nt,?,nt,nt,8%
Cc1ccc(C)c(-n2cc(CN3CCN(C(=O)c4ncn[nH]4)CC3)c(-c3ccccc3)n2)c1,?,-1%,nt,-6%,nt,?,2%,-27%
CCOc1cccc2sc(NN)nc12,-3%,-4%,nt,nt,nt,8%[46.1 µM],-15%,-10%
CC(C)N1CCC(N2CCN(Cc3cccc4nonc34)CC2CCO)CC1 (stereo not given),-29%,1%,nt,1%,nt,0%[46.1 µM],-22%,16%

Remaining list, next part
smiles,Lassa entry inh,SARS PLP yeast,Cruzain Triton,NS1 function inh,Cruzain inh noDet,Marburg entry inh,RE007 growth inh,2A StopGo
O=C(NNC(=O)c1csc(-c2cccnc2)n1)Nc1ccc(Cl)cc1,nt,-3%,nt,-11%,nt,nt,-3%,9%
O=[N+]([O-])c1ccc(S(=O)(=O)CC2CSc3nc4ccccc4n32)cc1 (stereo not given),?,4%,-3.7%,8%,-9%,?,5%,-14%
COc1ccccc1C(=O)NNC(=O)CCN1C(=O)/C(=C\c2ccccc2)SC1=S,?,-1%,nt,-2%,nt,25%[46.1 µM],-14%,-16%
O=C(NC1CCN(Cc2ccccc2)CC1)c1cc(Br)c(Br)[nH]1,-4%,0%,nt,-4%,nt,-2%[46.1 µM],-5%,-25%
COc1ccc(N2CCN(C(=O)C3CCCO3)CC2)cc1 (stereo not given),-1%,7%,-2.6%,1%,8%,17%,-19%,13%
O=C(CSc1nnc(-c2cccnc2)s1)Nc1ccccc1,?,?,nt,-9%,nt,14%[46.1 µM],-3%,-1%
O=C(NC1CCCC1)C(c1ccsc1)N(Cc1ccco1)C(=O)Cc1cccs1 (stereo not given),-17%,-5%,1.2%,2%,-3%,0%,10%,-1%
CCCn1c(SCC(=O)NCC)nc2sc3c(c2c1=O)CCC3,1%[46.1 µM],8%,nt,15%,nt,-10%[46.1 µM],34%,9%
Cc1ccccc1Nc1nc(N)nc(CSc2nnc3ccccn23)n1,18%,-3%,nt,10%,nt,13%[46.1 µM],60%,47%[activator]
COCCCNC(=S)N1CCN(c2nc3ccccc3s2)CC1,nt,0%,nt,-12%,nt,1%[46.1 µM],4%,-22%
CCN(C(=O)CSc1nc2ccccc2c(=O)n1-c1cccc(C)c1)C1CCS(=O)(=O)C1 (stereo not given),5%,3%,nt,nt,nt,?,4%,15%
CCn1c(SCC(=O)c2ccc(F)cc2)nnc1-c1ccoc1C,17%,-4%,1.1%,?,-5%,11%,-1%,21%

(more compounds)
smiles,Lassa entry inh,SARS PLP yeast,Cruzain Triton,NS1 function inh,Cruzain inh noDet,Marburg entry inh,RE007 growth inh,2A StopGo
COc1cccc(CNC(=O)c2ccc(NC(=O)N3CC(C)Sc4ccccc43)cc2)c1 (stereo not given),-7%[46.1 µM],nt,-6.6%,nt,?,1%[46.1 µM],nt,0%
Cc1cc(C(=O)NNS(=O)(=O)c2ccc(F)cc2)nn1C(C)(C)C,nt,0%,nt,-4%,nt,nt,14%,15%
CCOc1cccc2cc(C(N)=O)c(=N)oc12,-7%,0%,nt,1%,nt,11%[46.1 µM],-3%,-26%
CC(=O)c1ccc(NC(=O)CSc2nnc(-c3ccncc3)n2C2CC2)cc1,5%,1%,nt,nt,nt,?,-12%,-6%
Cc1cc(C)nc(NC(=O)Cc2ccc(Cl)cc2)c1,?,-10%,nt,-14%,nt,-12%,-25%,-12%
Cc1cc(O)ccc1C1(c2ccc(O)cc2C)OC(=O)c2ccccc21,5%,13%,-17%,-4%,1%,?,12%,-11%
CC(=O)Nc1cccc(NC(=O)C(C)N2c3cccc4cccc(c34)S2(=O)=O)c1 (stereo not given),1%,-2%,nt,3%,nt,-5%[46.1 µM],6%,-21%
C=CC[N+]1(CC#Cc2ccccc2)CCCC1,-5%[46.1 µM],0%,nt,5%,nt,?,-4%,4%
Cc1ccc(S(=O)(=O)NCC(C)NC(=O)CN2CCOCC2)cc1 (stereo not given),11%[46.1 µM],0%,nt,-2%,nt,-11%[46.1 µM],-29%,15%
c1ccc(CNC2CCCCCCC2)cc1 (tested in a mixture with another compound),?,nt,nt,nt,nt,?,-2%,-13%
CC1=CC(C)(C)N(C(=O)CN2C(=O)c3ccccc3C2=O)c2ccc(C)cc21,2%,-73%,-5.4%,-11%,-7%,?,9%,nt
Cc1ccc(S(=O)(=O)N2CCN(Cc3ccccc3C(F)(F)F)CC2)cc1,-18%,-19%,-3.8%,-23%,7%,-1%,15%,0%

Reformatted: four of the compounds above
canonical_smiles: COc1cccc(CNC(=O)c2ccc(NC(=O)N3CC(C)Sc4ccccc43)cc2)c1 (stereo not given)
  Lassa entry inh: -7%[46.1 µM]
  SARS PLP yeast: nt
  Cruzain Triton: -6.6%
  NS1 function inh: nt
  Cruzain inh noDet: ?
  Marburg entry inh: 1%[46.1 µM]
  RE007 growth inh: nt
  2A StopGo: 0%
canonical_smiles: Cc1cc(C(=O)NNS(=O)(=O)c2ccc(F)cc2)nn1C(C)(C)C
  Lassa entry inh: nt
  SARS PLP yeast: 0%
  Cruzain Triton: nt
  NS1 function inh: -4%
  Cruzain inh noDet: nt
  Marburg entry inh: nt
  RE007 growth inh: 14%
  2A StopGo: 15%
canonical_smiles: CCOc1cccc2cc(C(N)=O)c(=N)oc12
  Lassa entry inh: -7%
  SARS PLP yeast: 0%
  Cruzain Triton: nt
  NS1 function inh: 1%
  Cruzain inh noDet: nt
  Marburg entry inh: 11%[46.1 µM]
  RE007 growth inh: -3%
  2A StopGo: -26%
canonical_smiles: CC(=O)c1ccc(NC(=O)CSc2nnc(-c3ccncc3)n2C2CC2)cc1
  Lassa entry inh: 5%
  SARS PLP yeast: 1%
  Cruzain Triton: nt
  NS1 function inh: nt
  Cruzain inh noDet: nt
  Marburg entry inh: ?
  RE007 growth inh: -12%
  2A StopGo: -6%

(continued)
smiles,Lassa entry inh,SARS PLP yeast,Cruzain Triton,NS1 function inh,Cruzain inh noDet,Marburg entry inh,RE007 growth inh,2A StopGo
Cc1ccc(NC(=O)c2ccccc2-c2cc(C)no2)cc1,nt,-2%,nt,6%,nt,nt,-14%,3%
C=CCOC(=O)C1=C(C)OC(N)=C(C#N)C1c1ccco1 (stereo not given),nt,2%,nt,4%,nt,nt,2%,-13%
COc1ccc(OCC#CCN2CC(C)OC(C)C2)cc1 (stereo not given),13%[46.1 µM],13%,nt,nt,nt,?,13%,-1%
O=C(Nc1ccon1)c1cc2c(s1)CCCCCC2,?,-15%,-1.4%,-42%,-23%,?,12%,43%[activator]
O=C(C1=C[C@@H](C2CCCCC2)C[C@@H](OCc2ccc(CO)cc2)O1)N1CCN(Cc2ccccc2)CC1,nt,-4%,nt,-36%,nt,nt,7%,-19%
Cc1nc2scc(-c3ccccc3)c2c(=O)n1N=C1C=CC(=O)C=C1,-21%,-2%,nt,-5%,nt,?,-4%,28µM*
COc1ccc(OCC(=O)Nc2ccc3nn(-c4ccc(OC)cc4)nc3c2)cc1,-8%[46.1 µM],nt,1.2%,nt,-11%,nt,nt,23%
COc1cc(/C=C2\SC(N3CCC(C)CC3)=NC2=O)ccc1O,?,-2%,nt,-10%,nt,?,2%,23%
CCCCN(CCCC)Cc1ccc(N)cc1,?,5%,2.9%,1%,-7%,2%,-19%,-5%
O=C(NCC1CCCO1)c1ccc(COc2ccccc2)o1 (stereo not given),-13%,-7%,nt,nt,nt,-5%,-3%,7%
O=C(/C=C/c1ccco1)N1CCN(C/C=C/c2ccccc2)CC1,-7%,-15%,-6.1%,-1%,4%,0%,15%,?
CC(=O)N1CCc2c(sc(NC(=O)Cc3ccccc3)c2C(N)=O)C1,nt,-1%,nt,-8%,nt,nt,-2%,0%

Going on with the list.
smiles,Lassa entry inh,SARS PLP yeast,Cruzain Triton,NS1 function inh,Cruzain inh noDet,Marburg entry inh,RE007 growth inh,2A StopGo
O=C(Cn1cc(C(F)(F)F)ccc1=O)NCCc1ccc(Cl)cc1Cl,11%,8%,-1.4%,6%,-3%,2%,0%,-2%
COc1ccc(NC2=NCCCCC2)cc1,16%,-6%,nt,13%,nt,3%,0%,9%
CCN(CC)S(=O)(=O)c1cccc(N=NC2=C(O)CCCC2=O)c1,?,19%,-8.8%,7%,-8%,11%,5%,6%
Clc1ccc2nc(C3CCN(Cc4ccccc4)CC3)[nH]c2c1,?,-1%,-3.9%,-11%,-1%,?,5%,-9%
NC(N)=Nc1nc(-c2ccccc2)c2cc(F)ccc2n1,-22%[46.1 µM],1%,nt,nt,nt,?,-23%,-19%

Screens (PubChem)
